Sa ugtP lethal: growth inhibition of ugtP-null S. aureus, primary screen, RN4220 ugtP deletion, OD600 | hit rate 0.54% among 330,000 | growth inhibition, % (concentration not given with the values) | AID 1259309, 2017 | 16 h; some inactives read as strong as hits;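 active = z-score under -3 and OD600 up to 0.15 on both plates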;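 also: plate controls were untreated wells for no effect and antibiotic for full effect; wells of about 80 µL received 100 nL stock; the first replicate is given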
PrP UTR inh: inhibition of PrP 5' UTR reporter expression; cell-based PrP 5' UTR mRNA reporter, plate reader; inhibition, % (test concentration not listed); hit rate 0.35% among 340,000;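 active = every replicate at 50% or more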;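 also: 0 = median of the neutral control wells; tested in H4 reporter cells; numbers are from one replicate; inactives centre near -14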
Mtb hypoxia inh: PubChem AID 1159583 | M. tuberculosis hypoxia-regulated fluorescent reporter, fluorescence | hit rate 0.1% among 300,000 | fluorescence inhibition, % (no concentration beside the values);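 active = 35 to 45% if threefold the growth effect, above 45% if 1.5-fold the growth effect; inactive = the rest, general growth blockers included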;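 also: wells of about 50 µL received 100 nL stock; 0% = vehicle wells and 100% = reference inhibitor wells; whole bacteria with a GFP reporter of the hypoxia response; strong numbers were not always called active; many hits fall short of the cut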
Bead autofluor: flagged as autofluorescent in microsphere protease counterscreen; compound autofluorescence counterscreen, microsphere flow cytometry; stronger effect = higher value; fluorescence intensity (concentration not given with the values); hit rate 3.1% among 360,000;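 active = at least 3 SD above the mean of all compounds, about 16000 in these data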;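 also: 100 nL of 1 mM stock went into each well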
Sa RN4220 lethal: growth inhibition of S. aureus RN4220, primary screen, OD600; AID 1259311, 2017; 16 h; inhibition, % (test concentration not listed); hit rate 0.33% among 330,000;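 active = z-score of -3 or lower and OD600 up to 0.18 on both plates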;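 also: plate controls were untreated cells for no effect and reference antibiotic for full effect; stock transfer was 100 nL into about 80 µL; one replicate is shown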
BJeLR viability: MLPCN primary cell-based screen for lethality selective to Ras in HRASV12 cells; BJeLR (HRASV12) viability, CellTiter-Glo ATP luminescence, 48 h; reference of the scale not given here; inhibition, % (no concentration beside the values); hit rate 0.17% among 300,000;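 active = replicate mean above 50%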;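 also: 50 nL library stock added to about 25 µL; numbers are from one replicate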
Mtb hypoxia inh growth: second read-out of Mtb hypoxia inh, no call of its own (marks repeat the call); growth inhibition, %; measured here: M. tuberculosis growth (absorbance);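 0% = vehicle and 100% = reference antibiotic; read after six days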
The depositor's hits bear a star; x = not tested or not shown.

Value order: Mtb hypoxia inh, Sa RN4220 lethal, BJeLR viability, PrP UTR inh, Mtb hypoxia inh growth, Sa ugtP lethal, Bead autofluor
> CN(CC(=O)Nc1cccc(F)c1)C(=O)c1ccccc1OCC(=O)Nc1cccc(C(F)(F)F)c1
 : -1, -0.5, 6, -10, -4, -8, 4846
> CC(C)OCCCNC(=O)C(=O)NCCCOC(C)C
 : 11, 3.5, -3, 0, 4, 8, 6298
> COC(=O)[C@H](Cc1ccccc1)NC(=O)N1CC(C)OC(C)C1 (stereo not given in full)
 : x, x, -6, 2, x, x, 3171
> O=C(CCCC(=O)c1ccccc1)Nc1ccc(O)cc1
 : 2, 0.3, -10, -4, -3, 5, 3064
> CCCCC(O)(CCCC)C(=O)N/N=C(\C)c1ccc(Cl)cc1
 : x, x, 0, -9, x, x, 4126
> O=S1(=O)CCOCC(CC2CCCCC2)N1Cc1cccc(C(F)(F)F)c1 (stereo not given)
 : 1, 7.3, x, x, 4, 8, x
> O=C(c1cccc(C(=O)N(c2ccccn2)C2CCCCC2)c1)N(c1ccccn1)C1CCCCC1
 : 9, 4.2, 0, -7, 0, 6, 4619
> Cc1cc(C)n(CC(=O)n2c(C)c(C)c3ccccc32)n1
 : x, 0.8, 0, -13, x, 9, 5082
> COc1ccc(C)cc1NC(=O)CN1C(=O)COc2ccc(S(=O)(=O)N3CCCCC3)cc21
 : 2, 5.9, -6, 3, 2, 0, 5478
> CCN(C(=O)c1coc(=O)c2ccccc12)c1cc(OC)ccc1OC
 : x, 5.1, 2, -17, x, 7, 2993
> CCc1nn(CC(=O)NCCc2ccc(Cl)cc2)c(=O)c2cccn12
 : 1, -2.0, -6, 6, -4, -4, 4284
> COc1ccc(CNC(=O)CSc2nc3cccnc3s2)cc1
 : 16, 2.6, 2, -26, 1, 5, 3676
> COc1cc(/C=N/NC(=S)NCc2ccco2)cc(OC)c1OC
 : x, x, 6, -4, x, x, 2012
> CCCCn1c(N)c(N(CC)C(=O)CCNC(=O)NC23CC4CC(CC(C4)C2)C3)c(=O)[nH]c1=O
 : -9, 0.8, -7, -3, 1, 0, 6494
> CCOC(=O)C(NC(=O)c1ccc(OC)cc1)(N1CCCC1=O)C(F)(F)F (stereo not given)
 : 6, 26, -13, -17, 1, -3, 2458
> COc1cccc(NC(=O)CN(C)C(=O)C23CC4CC(CC(Cl)(C4)C2)C3)c1
 : -2, -1.7, x, -15, -1, -4, 3260
> O=C(Cc1ccccc1)NNc1ccc2ccccc2c1
 : x, x, 13, -32, x, x, 3332
> O=C(OCc1nc2ccsc2c(=O)[nH]1)c1cc(Br)c(Br)s1
 : -2, 2.4, 0, -16, 7, 1, 5898
> CSc1nnc(N2C(=O)C(O)=C(C(=O)c3ccc(C)o3)C2c2ccc(C)cc2)s1 (stereo not given)
 : 6, -3.5, 1, -40, 1, -3, 6400
> Fc1ccc(CSc2ncnc3scc(-c4ccccc4)c23)cc1
 : 2, -15, 10, -6, 1, 51, 2915
> Cc1csc(NC(=O)c2cncc(Br)c2)n1
 : 10, 2.6, -9, -71, 9, 2, 5951
> Cn1c(SCC(=O)N2c3ccccc3Sc3ccccc32)nc2ccccc21
 : 0, -5.3, -2, -9, 3, -8, 1991
> Cc1cccc(-c2noc(CCc3ccccc3)n2)c1
 : x, 3.3, -14, -27, x, 11, 5248
> NC(=O)CC(NC(=O)c1cccc(Br)c1)c1ccc(NC2CCN(Cc3ccccc3)CC2)c([N+](=O)[O-])c1 (stereo not given)
 : 18, -2.7, 8, -8, 14, -2, 3578
> Cc1cc(-c2ccccc2C(=O)NCc2ccccc2)on1
 : x, 0.2, 5, -17, x, -1, 2718
> COc1ccc(/C=C/C(=O)N(CC(C)C)CC(C)C)cc1Br
 : 1, 3.5, -2, -80, 1, -8, 21487*
> O=C(CON=Cc1ccccc1)Nc1ccccc1C(=O)N1CCOCC1
 : 11, 2.8, x, x, 8, 4, x
> CCNC(=O)CC1SC(=Nc2ccccc2C)N(C)C1=O (stereo not given)
 : -1, 5.1, -1, -33, 1, -10, 5005
> CCOC(=O)c1c(N)sc(C(=O)N(C)C)c1CN1CCOCC1
 : 7, 3.3, -6, -20, -3, 13, 20070*
> COc1ccc(N(C(=O)c2csnn2)C(C(=O)NC2CCCC2)c2ccccc2)cc1 (stereo not given)
 : 0, 1.3, 7, -7, 7, 5, 3802

3 entries already listed, ordered by SMILES length, low to high.
Value order: Mtb hypoxia inh, Sa RN4220 lethal, BJeLR viability, PrP UTR inh, Mtb hypoxia inh growth, Sa ugtP lethal, Bead autofluor
> CCOC(=O)c1c(N)sc(C(=O)N(C)C)c1CN1CCOCC1
 : 7, 3.3, -6, -20, -3, 13, 20070*
> O=C(OCc1nc2ccsc2c(=O)[nH]1)c1cc(Br)c(Br)s1
 : -2, 2.4, 0, -16, 7, 1, 5898
> COc1cccc(NC(=O)CN(C)C(=O)C23CC4CC(CC(Cl)(C4)C2)C3)c1
 : -2, -1.7, x, -15, -1, -4, 3260

Carrying on.
Value order: Mtb hypoxia inh, Sa RN4220 lethal, BJeLR viability, PrP UTR inh, Mtb hypoxia inh growth, Sa ugtP lethal, Bead autofluor
> COc1ccccc1CNC(=O)C(C)n1nc(C)n2c(cc3occc32)c1=O (stereo not given)
 : 1, 7.4, 6, -11, 2, 0, 5544
> Cc1ccccc1CCNCc1ccc(Br)cc1
 : -3, -2.3, -1, -1, 1, -18, 2944
> O=C(Nc1ccccc1)c1snc2c(=O)[nH]cnc12
 : -14, 4.1, 1, -23, -14, -2, 4292
> COc1ccc(N2CC(C(=O)Nc3nnc(SCc4ccccn4)s3)CC2=O)cc1 (stereo not given)
 : -1, 6.8, -16, -27, -1, 10, 7454
> CCOC(=O)/C(=C/c1ccc(OC)cc1)NC(=O)c1ccco1
 : 9, 4.4, 13, -10, 4, 3, 2469
> COc1ccccc1N1CCN(C(=O)C(OC(C)=O)c2ccccc2)CC1 (stereo not given)
 : -13, 0.7, 10, -30, -9, -1, 3742
> COc1ccc2oc(C(=O)OCC(=O)N3CCCC3=O)c(C)c2c1
 : -8, -0.2, -3, -20, 12, 5, x
> CCN(CC)C(=O)Oc1ccc2c(=O)c(-c3ccc(OC)cc3)coc2c1
 : -2, -1.9, -7, -72, 15, -12, 7965
> CCOC(=O)CSc1ccc(-c2nc3ccccc3[nH]2)cn1
 : 13, 6.1, 10, -3, 8, 11, 3477
> Cc1ccc(C(=O)Nc2ccccc2C(=O)O)cc1NC(=O)COc1c(C)cccc1C
 : -7, 5.2, 5, -35, 9, -4, 4266
> Cc1cc(=O)oc2cc(NC(=O)C3COc4ccccc4O3)ccc12 (stereo not given)
 : -27, 3.0, -6, -23, -16, -8, 8830
> CCCC(=O)NCc1cc(-c2nn(C)c(=O)c3ccccc23)ccc1OC
 : 6, 2.2, 1, -4, 4, 4, 4403
> Nc1c(NC(=O)CC[n+]2ccccc2)cccc1[N+](=O)[O-]
 : x, x, 1, -11, x, x, 1926
> CC(C)N1CCc2c(sc(NC(=O)c3cc4cc([N+](=O)[O-])ccc4s3)c2C(N)=O)C1
 : 10, 3.1, -5, -24, 4, -17, 6432
> CC(=O)Nc1ccc(-c2nnn(CC(=O)c3ccc(F)cc3)n2)cc1Cl
 : 3, -0.7, 6, -17, 1, -5, 4287
> Cc1ccc(C(=O)N2CCN3C(=O)c4ccccc4C23c2ccc(Cl)cc2)cc1 (stereo not given)
 : x, 3.2, -3, -5, x, 1, 2549
> COc1cc(C=Nn2c(C)n[nH]c2=S)ccc1OCc1ccc(F)cc1
 : 7, 9.2, x, x, -2, -2, x
> COc1ccc(NC(=O)C2CCCCN2S(=O)(=O)c2ccc(F)cc2)cc1 (stereo not given)
 : x, 2.9, -4, -4, x, 5, 4260
> Cc1ccc2[nH]c(=O)c(CN(Cc3cccs3)Cc3nnnn3CC3CCCO3)cc2c1 (stereo not given)
 : -8, 2.3, -11, -29, 3, -8, 7172
> C=CCN(CC(=O)O)S(=O)(=O)c1ccccc1C(F)(F)F
 : 15, 0.5, 28, -14, 5, 1, 4174
> CC(=NNC(=O)c1ccc2c(c1)OCO2)c1ccc(NC(=O)C(F)(F)F)cc1
 : 6, 12, x, x, -2, 3, x
> CC1=NN(C(=O)c2cccnc2)C(O)(C(F)(F)F)C1 (stereo not given)
 : 13, 5.8, 2, -3, 12, 6, 2113
> O=C(NCCN1CCOCC1)C(=O)NCC1OCCN1S(=O)(=O)c1ccc(Br)cc1 (stereo not given)
 : 1, 1.6, -2, -23, -2, 0, 5964
> CCN(CC)S(=O)(=O)c1cccc(C(=O)Nc2ccc(Cl)cn2)c1
 : 5, 8.6, -3, -20, 4, 2, 6612
> Cc1nnc(SCCn2c(N3CCC(C)CC3)nc3c2c(=O)n(C)c(=O)n3C)s1
 : 6, 2.6, -3, x, 7, 5, 8153
> CCOc1cc(/C=C/C(=O)O)ccc1OCCO
 : 15, 2.5, 2, 49, 6, 0, 4004
> Cc1ccc(O)c(C(CC(=O)NC2CCCCC2)c2ccccc2)c1 (stereo not given)
 : 9, -3.9, -2, -14, 4, 6, 4646
> CCCc1cc(-c2[nH]ncc2-c2ccc3c(c2)OCCCO3)c(O)cc1O
 : -8, 4.3, -7, -10, 4, -14, 5327
> Cc1cc(C)c2c(CN3CCCCC3C)cc(=O)oc2c1 (stereo not given)
 : 4, 7.5, -2, -14, -5, 9, 3935
> N#CCCN(Cc1ccccc1)S(=O)(=O)c1cccs1
 : 10, 1.4, -2, -21, 5, -2, 4043

Rewritten bar-delimited: part of the list above
SMILES | Mtb hypoxia inh | Sa RN4220 lethal | BJeLR viability | PrP UTR inh | Mtb hypoxia inh growth | Sa ugtP lethal | Bead autofluor
CC(=NNC(=O)c1ccc2c(c1)OCO2)c1ccc(NC(=O)C(F)(F)F)cc1 | 6 | 12 | x | x | -2 | 3 | x
C=CCN(CC(=O)O)S(=O)(=O)c1ccccc1C(F)(F)F | 15 | 0.5 | 28 | -14 | 5 | 1 | 4174

(further entries)
Value order: Mtb hypoxia inh, Sa RN4220 lethal, BJeLR viability, PrP UTR inh, Mtb hypoxia inh growth, Sa ugtP lethal, Bead autofluor
> Cc1cc(N2CCN(C)CC2)nc2ccc(NC(=S)N3CCCCCC3)cc12
 : 13, 5.0, -11, -43, 12, 1, 4800
> Cc1c(NC(=O)CCCN2C(=O)c3cccc4cccc(c34)C2=O)c(=O)n(-c2ccccc2)n1C
 : 7, 1.3, 2, -21, 4, 5, 4365
> CCC(=O)NCCc1cc2cc(C)c(C)cc2[nH]c1=O
 : x, -0.7, -5, -19, x, 4, 2117
> N=C1c2ccccc2CN1NC(=O)c1ccco1
 : -3, -0.6, x, -1, 0, -3, 2841
> Cc1n[nH]c(=O)nc1NCc1ccccc1Cl
 : 7, 3.6, 9, -7, 4, 6, 3307
> O=C1N/C(=N\N=C\c2cccs2)SC1Cc1ccc(Cl)cc1 (stereo not given)
 : x, x, -8, -11, x, x, 2201
> Cc1ccc(-n2ccc(=O)c(-c3ccnc(SCc4cccc(Cl)c4)n3)n2)cc1
 : x, 8.8, 7, 1, x, -16, 3521
> C=CCCCCCCCCC(=O)NNC1CC(=O)N(c2ccccc2)C1=O (stereo not given)
 : -1, 4.0, -5, -24, -4, 0, 3511
> COc1ccc(-c2nc3ccccc3n2OC(=O)N(C)C)cc1
 : x, 0.7, -5, -27, x, 3, 4094
> Cc1cccc(Nc2ccc(C(=O)O)cc2[N+](=O)[O-])c1C
 : 6, 5.8, 7, -16, 1, -3, 2897
> O=C(N/N=C/c1c(O)n(-c2ccccc2Cl)c(=O)c2ccccc12)C1COc2ccccc2O1 (stereo not given)
 : 4, -2.4, -1, -37, 0, 4, 2678
> Cc1cc(C(=O)COc2ccc(Cl)cc2Br)c(C)n1C
 : -10, 9.9, -1, -28, -2, -3, 3029
> CC(C)OCCCNC(=O)c1ccccc1Oc1ccccc1
 : 5, 4.0, -15, x, 2, 3, 9682
> COc1cc(/C=N/Nc2ccccn2)ccc1OCC(C)C
 : x, x, -8, -31, x, x, 3837
> CCNC(=O)C(=O)NCC(c1ccc2c(c1)OCO2)N1CCOCC1 (stereo not given)
 : 9, 4.0, -3, 4, -5, 9, 4473
> O=C(CSc1nc2ccccc2[nH]1)N1CCN(c2ccc(F)cc2)CC1
 : 1, 1.9, -3, -26, 4, -14, 3466

Copied from the list:
Under Bead autofluor, Cc1cc(N2CCN(C)CC2)nc2ccc(NC(=S)N3CCCCCC3)cc12 reads 4800
Under Sa ugtP lethal, C=CCCCCCCCCC(=O)NNC1CC(=O)N(c2ccccc2)C1=O (stereo not given) reads 0
Under PrP UTR inh, COc1ccc(-c2nc3ccccc3n2OC(=O)N(C)C)cc1 reads -27
Under BJeLR viability, Cc1ccc(-n2ccc(=O)c(-c3ccnc(SCc4cccc(Cl)c4)n3)n2)cc1 reads 7

Assay outcomes from PubChem.
